ugtP null kill – growth inhibition of ugtP-null S. aureus, primary screen, RN4220 ugtP deletion, OD600; growth inhibition, % (no concentration beside the values); 16 h; some inactives read as strong as hits; hit rate 0.54% among 330,000;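 active means z-score under -3 and OD600 up to 0.15 on both plates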;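 further: plate controls were untreated wells for no effect and antibiotic for full effect; wells of about 80 µL received 100 nL stock; the first replicate is given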
RN4220 kill – growth inhibition of S. aureus RN4220, primary screen, OD600; 16 h; hit rate 0.33% among 330,000; inhibition, % (no concentration beside the values);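 active means z-score of -3 or lower and OD600 up to 0.18 on both plates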;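 further: plate controls were untreated cells for no effect and reference antibiotic for full effect; stock transfer was 100 nL into about 80 µL; one replicate is shown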
BJeLR viability – MLPCN primary cell-based screen for lethality selective to Ras in HRASV12 cells; BJeLR (HRASV12) viability, CellTiter-Glo ATP luminescence, 48 h; reference of the scale not given here; inhibition, % (concentration not given with the values); hit rate 0.17% among 300,000; AID 1554, 2009;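 active means replicate mean above 50%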;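 further: 50 nL library stock added to about 25 µL; numbers are from one replicate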
Mtb hypoxia rep – PubChem AID 1159583; M. tuberculosis hypoxia-regulated fluorescent reporter, fluorescence; fluorescence inhibition, % (concentration not given with the values); hit rate 0.1% among 300,000;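 active means 35 to 45% if threefold the growth effect, above 45% if 1.5-fold the growth effect; inactive means the rest, general growth blockers included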;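 further: wells of about 50 µL received 100 nL stock; 0% = vehicle wells and 100% = reference inhibitor wells; whole bacteria with a GFP reporter of the hypoxia response; strong numbers were not always called active; many hits fall short of the cut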
Autofluor counter – counter-screen for toxin protease inhibitors: compound fluorescence. fluorescence intensity (concentration not given with the values). hit rate 3.1% among 360,000. AID 624483. compound autofluorescence counterscreen, microsphere flow cytometry; hits give high values;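 active means at least 3 SD above the mean of all compounds, about 16000 in these data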;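 further: 100 nL of 1 mM stock went into each well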
PrP UTR inh – inhibition of PrP 5' UTR reporter expression | cell-based PrP 5' UTR mRNA reporter, plate reader | inhibition, % (no concentration beside the values) | hit rate 0.35% among 340,000;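 active means every replicate at 50% or more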;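 further: 0 = median of the neutral control wells; tested in H4 reporter cells; numbers are from one replicate; inactives centre near -14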
Mtb hypoxia rep growth – also measured in Mtb hypoxia rep; calls as there; growth inhibition, %; measured here: M. tuberculosis growth (absorbance);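 0% = vehicle and 100% = reference antibiotic; read after six days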
Numbers without * were called inactive; nt = not tested or not shown; & = joins results of further samples.

Molecule | ugtP null kill | RN4220 kill | BJeLR viability | Mtb hypoxia rep | Mtb hypoxia rep growth | Autofluor counter | PrP UTR inh
CNC(=O)c1c(C)nn(-c2ccc(F)c(Cl)c2)c1-c1cc(C)on1 | 6 | 1.4 | -2 | -4 | -2 | 4517 | nt
Cc1ccc(NC(=O)C(=O)NCc2ccc(/C=C(/C#N)C(=O)NCc3cccnc3)o2)cc1C | -2 | 7.6 | 14 | 13 | 6 | 2491 | 4
CN(C(=O)c1cccc(NC(=O)Cc2ccc(NC(=O)C3CCCN(C(=O)C4CCC4)C3)cc2)c1)C1CCCCC1 (stereo not given) | 1 | 3.1 | nt | -20 | -4 | 3962 | 0
CCOC(=O)Nc1ccc2c(CN(C)Cc3ccc(F)cc3)cc(=O)oc2c1 | -4 | 1.6 | 2 | 8 | 5 | 5463 | -11
Cc1cccc(NC(=O)COC(=O)c2ccc3c(=O)n4c(nc3c2)CCC4)c1 | 1 | 3.6 | -2 | 0 | 3 | 2433 | -14
CC12CC(NC(=O)N1c1cccc(C(=O)NCc3ccccn3)c1)c1ccccc1O2 (stereo not given) | 4 | 2.9 | -1 | -1 | -3 | 6220 | -8
COc1ccc(C(NC(=O)/C=C\c2ccco2)c2ccc(OC)c(OC)c2)cc1 (stereo not given) | -2 | 0.1 | -3 | 3 | -1 | 9509 | -32
CCCSc1cc(NCCOC(=O)CCC)c([N+](=O)[O-])c2nonc12 | 1 | 3.7 | -12 | 13 | 18 | 2416 | -11
Nc1c(C(=O)CSc2nnnn2-c2ccccc2)c(=O)[nH]c(=O)n1C1CC1 | 7 | 2.1 | nt | 5 | 7 | 3840 | -17
O=[N+]([O-])c1cccc(S(=O)(=O)N2CCc3ccccc3C2)c1 | 6 | 6.7 | -12 | 5 | 2 | nt | -71
CCc1cccc2c(C(=O)C(F)(F)F)cn(CC(=O)N3CCOCC3)c12 | -2 | 0.4 | -3 | 0 | 8 | 2682 | -8
CC(C)CC1C(=O)N2CCCC2[C@]2(O)O[C@](NC(=O)C3C=C4c5cccc6[nH]c(Br)c(c56)CC4N(C)C3)(C(C)C)C(=O)N12 (stereo not given in full) | -10&-16 | -8.3&-9.4 | nt | -4&-13 | 3&-1 | nt | nt
CC=C(C)C(=O)OC1CC(C)(C)CC2C3=CCC4[C@@]5(C)CCC(OC6OC(C(=O)O)C(O)C(OC7OCC(O)C(O)C7OC7OC(CO)C(O)C(O)C7O)C6OC6OC(CO)C(O)C(O)C6O)[C@@](C)(CO)C5CC[C@]4(C)[C@]3(C)CC(O)[C@@]12CO (stereo not given in full) | 0&2 | 8.7&7.2 | nt | 17&-2 | 8&0 | nt | nt
Cc1noc(C)c1NC(=O)N(C)CC1Oc2c(NC(=O)c3ccncc3)cccc2C(=O)N(C(C)CO)CC1C (stereo not given) | 4 | 1.3 | nt | 13 | 8 | nt | nt
CCOC(=O)c1ccc(NC(=S)N2CCCC(C)C2)cc1 (stereo not given) | 3 | 4.4 | 3 | 12 | 16 | 4849 | -20
COc1ccccc1/C=C/C(=O)NCc1ccccn1 | 4 | -0.7 | -7 | 14 | 12 | 2193 | -36
CCN(CC)CCCNC(=O)Cn1ncc2c(=O)oc3ccc(C)cc3c21 | 4 | -11 | -2 | 13 | 11 | 5320 | -9
COc1ccc(C(=O)NCC(=O)OCC(=O)c2ccc(Cl)cc2)cc1OC | 4 | 6.9 | nt | -14 | -16 | 4690 | -22
CCN(CC)S(=O)(=O)c1cccc(-c2n[nH]c(=S)n2N=Cc2ccc(C(=O)OC)cc2)c1 | -9 | 8.0 | nt | 2 | 3 | nt | nt
CC(CC(=O)Nc1cccc2c1CCCC2)=NNC=O | 9 | 3.5 | nt | 2 | -2 | nt | nt
CCOC(=O)CC(NC(=O)C1c2ccccc2Oc2ccccc21)c1ccccc1Cl (stereo not given) | 0 | 3.1 | -4 | 6 | 6 | 9623 | -36
C=CCNC(=O)CC1C(=O)NCCN1Cc1ccc(-c2ccccc2)cc1 (stereo not given) | 14 | 2.6 | -7 | 1 | 7 | 2590 | -17
Cc1ccc(-n2c(Cn3nc(C(F)(F)F)cc3C)n[nH]c2=S)cc1 | 2 | 2.4 | 9 | 6 | 5 | 17459* | -14
COc1ccccc1-c1sc2cc3c(cc2c1C#CCO)OCO3 | 8 | 8.2 | nt | 22 | 9 | 4210 | -23
CCN(CC)S(=O)(=O)c1cccc(NC(=O)COc2ccc(Cl)cc2Br)c1 | -27 | 6.6 | -1 | 3 | -2 | 7050 | -36
O=C(NCCC1CCCCN1S(=O)(=O)c1ccc(Cl)cc1)C(=O)NCCN1CCOCC1 (stereo not given) | nt | nt | -2 | nt | nt | 6041 | -10
O=C(c1cc2c(=O)oc3ccccc3c2s1)N1CCOCC1 | 7 | 7.0 | 20 | 18 | 9 | 2991 | 38
NC(=O)c1sc2nc3c(c(-c4ccc(Cl)cc4)c2c1N)CCCC3 | -17 | -2.4 | -13 | 14 | 6 | 9803 | -20
CCOc1ccc(NC(=O)CN(C)C(=O)c2ccc3c(c2)C(=O)N(CCC(C)C)C3=O)cc1OCC | 6 | 2.7 | 0 | 3 | 6 | 6054 | -11
CC(C)CCN1C(=O)c2ccc(C(=O)Nc3ccc(Br)cc3C(=O)O)cc2C1=O | 100* | 98* | 4 | 5 | 0 | 3036 | -13
COc1cccc2cc(C(=O)NCCN3CCOCC3)oc12 | 9 | 3.7 | 4 | 15 | 6 | 5154 | -20
Cc1ccc(C)c(S(=O)(=O)N2CCCOC2CNC(=O)C(=O)NC2CCCCC2)c1 (stereo not given) | 4 | 2.9 | -3 | 4 | 0 | 6225 | -36
O=C(Nc1ccc(Nc2ccccc2)cc1)c1c(Cl)cccc1Cl | 27 | -7.3 | -2 | 10 | 2 | 5502 | -54
COc1cccc(NC(=O)Nc2ccc(Cc3ccncc3)cc2)c1 | -9 | -5.4 | -1 | 1 | 4 | 2728 | -16
COc1ccc(CNC(=O)CSc2nnc3c(n2)[nH]c2ccccc23)cc1 | 8 | 5.5 | -13 | 7 | 2 | 3006 | -19
COc1ccc(OC)c(-n2nnnc2SCC(=O)N2CCN(C(=O)c3ccco3)CC2)c1 | -2 | -4.0 | -8 | -5 | 12 | 3484 | -14
COc1ccc(CC(=O)Oc2ccc(Cl)cc2Br)cc1S(=O)(=O)N1CCOCC1 | 4 | 2.4 | -14 | 0 | -12 | 5681 | -24
Cc1cn([C@H]2C[C@H](O)[C@@H](CCC(=O)NCCc3c[nH]c4ccccc34)O2)c(=O)[nH]c1=O | -4 | 6.5 | nt | 1 | 7 | 4351 | 59*
O=C(CCC(=O)N1CCOc2ccc(Cl)cc21)NCCCN1CCC(Cc2ccccc2)CC1 | -14 | -16 | 18 | 8 | 17 | 6473 | -52
O=S1(=O)CCC(NCC2CCCO2)C1 (stereo not given) | 7 | 2.9 | 1 | 10 | 4 | 3070 | -6
O=C(N/N=C/c1cccnc1)c1ccc(S(=O)(=O)N2CCCCCC2)cc1 | nt | nt | -4 | nt | nt | 4489 | 4
Cc1ccc(C2=NNC(=O)C(c3ccc(Cl)cc3)C2)cc1 (stereo not given) | -6 | 0.4 | 0 | nt | nt | 2543 | -23
CC(C)NC(=S)NN=Cc1sc(N2CCCCC2)nc1-c1cccs1 | 80 | 1.3 | nt | -5 | 6 | nt | nt
COc1cccc(C2C(C(N)=O)=C(C)Nc3nc(CCCO)nn32)c1OC (stereo not given) | -3 | -3.6 | -7 | nt | nt | 6046 | -11
COc1cccc(/C=N/n2c(COc3ccccc3)n[nH]c2=S)c1 | nt | nt | 1 | nt | nt | 4142 | -12
CC[n+]1c(/C=C2\C=C(C)CC(C)C2)sc2ccccc21 (stereo not given) | -8 | -5.8 | 12 | 10 | 21 | 2686 | -13
Cc1ccc(C(=O)N2CCCC(CCC(=O)NCc3ccccc3F)C2)cn1 (stereo not given) | 1 | 0.8 | 6 | 1 | 1 | 4980 | 0
Cc1occc1C(=O)NNC(=S)NCC(C)C | 2 | 1.4 | -11 | 1 | -4 | 16438* | -11
Cc1ccc(Cl)cc1NC(=O)COC(=O)CCN1C(=O)C2CC=CCC2C1=O (stereo not given) | 2 | 0.7 | nt | 3 | -3 | 3451 | -15
O=C(CC1OC(=O)c2ccccc21)NC1CCCCC1 (stereo not given) | 2 | 1.8 | -2 | 10 | 7 | 2945 | -7

More records.
Molecule | ugtP null kill | RN4220 kill | BJeLR viability | Mtb hypoxia rep | Mtb hypoxia rep growth | Autofluor counter | PrP UTR inh
O=C(c1ccccc1)N1CCCOC1c1ccccc1 (stereo not given) | 1 | 5.3 | 4 | 4 | -1 | 9832 | -13
CC(C)=CCN1CCN(Cc2cn[nH]c2C2CCCCC2)CC1CCO (stereo not given) | 5 | 4.0 | 9 | 6 | 5 | nt | nt
Clc1ccccc1-c1nn2c(-c3ccccn3)nnc2s1 | 4 | 5.7 | -6 | -5 | 5 | 22234* | -13
COC(=O)c1ccccc1NC1=C/C(=N\S(=O)(=O)c2cccs2)c2ccccc2C1=O | -3&-12 | 9.5&5.8 | -4 | 3&0 | 13&-6 | 3481&11038 | -3&-38
COC(=O)c1ccccc1OCCCN(C)C | 8 | -0.3 | -9 | 11 | 6 | 1881 | -26
COc1cc(/C=C(\C#N)C(=O)NCC2CCCO2)c([N+](=O)[O-])cc1OC (stereo not given) | -3 | 2.8 | -8 | 4 | 4 | 3409 | 14
COC(=O)c1ccc(CC(C(=O)c2ccccc2)N(C)C)cc1 (stereo not given) | 13 | 5.5 | -11 | 8 | 7 | 4147 | -43
COc1cc(NC(=O)N[C@@H](Cc2c[nH]c3ccccc23)C(=O)O)c(C(=O)O)cc1OC | 8 | -2.5 | -3 | 17 | 7 | 3871 | -19
CCCCC(=O)/C=C/n1c(=S)oc2ccccc21 | 20 | -0.9 | -4 | 4 | 0 | 2496 | -15
CC(=O)Nc1ccc(NC(=O)c2cccc3c2-c2ccccc2C3=O)cc1 | 7 | -1.3 | 2 | 7 | 6 | 4451 | -14
CS(=O)(=O)N1CCN(c2ccccc2[N+](=O)[O-])CC1 | 7 | 3.1 | 1 | -3 | -1 | 4561 | -37
O=S(=O)(Cc1ccccc1)Nc1ccc(F)cc1 | 6 | -2.0 | 2 | 5 | -4 | 4259 | -12
CCC(=O)NC(Nc1sc2c(c1C(=O)OC)CCCC2)(C(F)(F)F)C(F)(F)F | 2 | 1.7 | -7 | -4 | 5 | 9657 | 5
Cn1cnnc1SCC(=O)c1cc2ccccc2o1 | 2 | 0.8 | 1 | 0 | 0 | 2863 | -33
COc1ccc(C(=O)NCc2cn3ccsc3n2)cc1OC | 1 | 0.1 | -9 | -7 | -3 | 6091 | -9
COc1ccccc1S(=O)(=O)CC(O)COc1ccccc1Cl (stereo not given) | 0 | 0.1 | -2 | -6 | -2 | 5264 | 2
Cc1cc2ccccn2c1C(=O)c1ccc(S(=O)(=O)N(C)C)cc1 | 2 | 0.0 | 4 | 3 | 12 | 4325 | -12
Cc1cccc(C)c1OCc1nc2ccccc2c(=O)n1N=Cc1c[nH]c2ccccc12 | 9 | 42 | nt | 10 | 6 | nt | nt

Part of the list above, with values under each structure.
Order of values – ugtP null kill, RN4220 kill, BJeLR viability, Mtb hypoxia rep, Mtb hypoxia rep growth, Autofluor counter, PrP UTR inh
Cc1cc2ccccn2c1C(=O)c1ccc(S(=O)(=O)N(C)C)cc1
 : 2, 0.0, 4, 3, 12, 4325, -12
O=S(=O)(Cc1ccccc1)Nc1ccc(F)cc1
 : 6, -2.0, 2, 5, -4, 4259, -12
CS(=O)(=O)N1CCN(c2ccccc2[N+](=O)[O-])CC1
 : 7, 3.1, 1, -3, -1, 4561, -37
CCC(=O)NC(Nc1sc2c(c1C(=O)OC)CCCC2)(C(F)(F)F)C(F)(F)F
 : 2, 1.7, -7, -4, 5, 9657, 5
Cn1cnnc1SCC(=O)c1cc2ccccc2o1
 : 2, 0.8, 1, 0, 0, 2863, -33

Screens from PubChem BioAssay.
